HTT promoter inh: HTT promoter inhibition; Potency, µM (titrated, usually from 57.5 µM), inactives show top-dose activity change, negative = inhibition, hits mostly inhibitors; HEK293 HTT promoter firefly luciferase reporter (activity 0% = vehicle and -100% = no light), 24 h; AID 1508623; 48,000 compounds, 0.93% hits; active = well fitted inhibition curve with a large enough effect; inconclusive = small, poorly fitted or top-dose-only effect; inactive = no such curve, though single readings can be large or run the other way; note: nearly all actives have a fitted effect of over 50% in size
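HEK293 cells carrying firefly luciferase reporters were seeded at 2,500 per well in Opti-MEM and cultured for 24 h. They were then treated with compounds at up to 57.5 uM final for 24 h at 37 degrees C before Dual-Glo luminescence readout.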
PMP22 txn prim: PMP22 gene transcription modulation. S16 Pmp22-F2sN Schwann cells (luciferase reporters placed in the Pmp22 gene), FLuc/NLuc coincidence luminescence, 24 h. Potency, µM (series often up to 57.5 µM), for inactives: at the top dose activity change, negative = inhibition, actives largely listed as inhibitors. 43,000 compounds, 2% hits; active = clear falling dose curves in both reporters; inconclusive = both reporters move, but less clearly or upward; inactive = either reporter flat; the % is the NLuc reporter signal; note: % is set by controls: 0 for no effect and ±100 for the full control effect; some results filed as inactive show a strong effect at the top dose
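Transcriptional readout in edited S16(c9) cells: two luciferases reported from the Pmp22 locus, measured in turn after 24 h compound incubation.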
* marks the source's active call; other numbers are inactive results; ? = inconclusive; . = no result given; [ ] = remark or other dose. Potency is the fitted concentration of half-maximal effect.

Compound | HTT promoter inh | PMP22 txn prim
COc1ccc(N2C(=O)NC(NS(=O)(=O)c3ccc(Cl)cc3)(C(F)(F)F)C2=O)cc1 (centres undefined) | -7% | 9%
COc1cccc(CN2CCc3nc(SCC(=O)Nc4ccccc4)[nH]c(=O)c3C2)c1 | ? | -16%
COc1ccc(NC(=O)Cn2c(=O)n(Cc3nc(C)no3)c(=O)c3cc4c(cc32)OCO4)cc1OC | -15% | -8%
Cc1ccn2c(Nc3ccccc3C)c(-c3ccccc3)nc2c1 | -16% | -50%
Cc1cc(C)cc(-n2c(SCC(=O)Nc3ccc4c(c3)OCO4)nc3c([nH]c4ccccc43)c2=O)c1 | -8% | 0%
O=C(Nc1cccc(C(F)(F)F)c1)c1cc2nc(-c3ccccc3)cc(C(F)(F)F)n2n1 | 1% | 5%
Cc1cccc(N2CCN(C(=O)c3ccc4c(c3)c(C)c(C)n4C)CC2)c1C | -4% | -18%
CCCn1cc(S(=O)(=O)c2ccc(CC)cc2)c(=O)c2cc(F)c(N(CC)CC)cc21 | -3% | ?
CN(C)CCNC(=O)CN1C(=O)CCn2nc(-c3cn(C)c4ccccc34)cc21 | -2% | ?
COc1cccc(Cc2nc3ccccc3nc2SCC(=O)N2CCCCC2C)c1 (centres undefined) | ? | ?
Cc1c(C(=O)N2CCC(C)CC2)c(S(=O)(=O)NCc2ccccc2)c(C)n1C | -15% | 14%
CCN(CC)c1ccc2cc(-c3nc(-c4cccs4)no3)c(=O)oc2c1 | 55%[activator] | -6%
COC(=O)c1cc(NC(=O)c2sc3ncn(Cc4cccc(F)c4)c(=O)c3c2C)cc(C(=O)OC)c1 | -2% | 20%
CCc1ccccc1NC(=O)c1ccc2c(c1)N(Cc1cc(C)ccc1C)C(=O)c1ccccc1S2(=O)=O | -12% | -7%
CCOc1cc2[nH]c(=O)n(CCCCC(=O)N3CCN(c4cccc(Cl)c4)CC3)c(=O)c2cc1OCC | -27% | 7%
Cc1nc(N2CCOCC2)c2c(C(=O)N3CCN(c4ccccc4F)CC3)c(C)oc2n1 | -10% | 1%
O=C(c1ccc(Br)cc1)N(Cc1cccs1)c1ccc(F)cc1 | -27% | -1%
CCc1cc2c(cc3c(=O)n(CC(=O)N4CCN(c5cc(Cl)ccc5C)CC4)nc(CC)n32)s1 | 1% | -23%
CC(NC(=O)c1ccc2nc(CCc3ccccc3)oc2c1)c1ccccc1 (centres undefined) | 7% | -32%
Cc1cccc(NC(=O)c2ccc(F)c(S(=O)(=O)N(C)C3CCCCC3)c2)c1 | ? | -100%

For convenience, some entries already given:
Compound | HTT promoter inh | PMP22 txn prim
O=C(c1ccc(Br)cc1)N(Cc1cccs1)c1ccc(F)cc1 | -27% | -1%
CCc1cc2c(cc3c(=O)n(CC(=O)N4CCN(c5cc(Cl)ccc5C)CC4)nc(CC)n32)s1 | 1% | -23%

Remaining list, next part
Compound | HTT promoter inh | PMP22 txn prim
CCOc1ccc(CCNC(=O)CN2CCN(Cc3ccc(Cl)cc3)C2=O)cc1OCC | ? | ?
CCN(CC)CCCCNc1nc2cc(Cl)c(Cl)cc2nc1-c1ccc(-c2cccs2)s1 | ? | .
Cc1oc2ccc(O)c(CN3CCN(Cc4ccccc4)CC3)c2c1C(=O)Nc1cccc(Cl)c1C | 4% | ?
COc1ccc(Nc2cc(C)c3cc(NC(=O)c4ccccc4Cl)ccc3n2)cc1 | ? | ?
Cn1c(=O)n(Cc2ccccc2)c(=O)c2c1nc1n2CCN1c1ccccc1 | 0% | 13%
Cc1nnc(N2CCN(C(=O)Nc3cccc(C(F)(F)F)c3)CC2)c2nn(-c3ccccc3)c(C)c12 | -22% | ?
O=C(NCC(c1ccco1)S(=O)(=O)c1cccs1)c1ccc(Cl)cc1 (centres undefined) | -5% | -24%
Cc1ccc(CCNC(=O)Cn2c(-c3cccs3)cc3cc(F)ccc32)cc1 | -12% | ?
Cc1cc(C)cc(NC(=O)Cn2c(=O)n(-c3ccc(C)c(C)c3)c(=O)c3oc4ccccc4c32)c1 | ? | 13%
CCN(CC)CCCNC(=O)c1cn(C)c2ccc(S(=O)(=O)N3CCOCC3)cc2c1=O | -10%[11.5 µM] | 24%
Cc1c(C)n(Cc2ccccc2)c2ccc(C(=O)NCc3ccccc3F)cc12 | -10% | ?
COc1ccc2[nH]cc(CCN=C(NC(=O)c3ccccc3F)Nc3nc(C)cc(C)n3)c2c1 | -29% | ?
Cc1ccc(CNC(=O)C2CCN(c3ncnc4c3nc3n4CCCCC3)CC2)cc1 | 7% | -23%
O=C(Nc1ccc2oc(-c3cc(Br)ccc3Cl)nc2c1)c1ccc2ccccc2c1 | ? | ?
O=C1CC(c2nc(-c3cccc(Cl)c3)no2)CN1c1ccc2c(c1)OCCO2 (centres undefined) | -30% | ?
CCc1ccc(C(=O)c2cn(CC(=O)Nc3ccc4c(c3)OCO4)c3ccc(CC)cc3c2=O)cc1 | -18% | 13µM*
COc1cccc(CNc2ncnc3c2nnn3C)c1 | -18% | -8%
CC(C)(Oc1ccc(Cl)cc1)C(=O)OCCCOC(=O)C(C)(C)Oc1ccc(Cl)cc1 | 6% | .
CCc1ccc(-n2nc(CO)c(C(=O)NCCCc3ccccc3)n2)cc1 | -2% | 0%
Cc1ccccc1-n1c(SCC(=O)Nc2ccc(Cl)cc2F)nnc1-c1cc2occc2n1C | -16% | 7%
COc1ccc(C2CC(=O)c3cc(-c4nc(-c5cccc([N+](=O)[O-])c5)cs4)c(=O)n(-c4ccc(C)c(C)c4)c3C2)cc1 (centres undefined) | -11% | -17%
CC1=C(C(=O)Nc2ccc(C)cc2C)C(c2cccn2C)n2ncnc2N1 (centres undefined) | -6% | 7%
O=C(CSc1nc(-c2ccc(Cl)cc2)nc2c1Cc1ccccc1O2)N1CCCCC1 | -7% | 5%
COc1cccc(C(=O)Nc2cc3cc(OC)ccc3oc2=O)c1 | 0% | -2%
CCOC(=O)c1c(NC(=O)/C=C/c2ccc(C(C)C)cc2)sc2c1CCC2 | -5% | -3%
CCOC(=O)c1scc(-c2ccc(C)cc2)c1S(=O)(=O)Nc1ccc(OC)c(Cl)c1 | -31% | -42%
Cc1ccccc1C(=O)c1cccn1CC(=O)NCc1ccccc1 | 19% | 0%
CCc1ccc(C(=O)c2cn(CC(=O)Nc3cc(OC)ccc3OC)c3ccc(C)cc3c2=O)cc1 | -13% | 8%
CCOC(=O)c1cc2c(=O)n3ccccc3nc2n(Cc2ccco2)c1=NC(=O)c1cc(C)cc(C)c1 | ? | 5.6µM*
COc1cccc(NC(=O)CCc2nc(-c3cccs3)no2)c1 | -23% | -9%
COc1ccc(N2CCN(C(=O)Nc3cn(CC(C)C)c(=O)c4ccccc34)CC2)cc1 | 2% | -2%
Cc1cc2oc(C(=O)Nc3nc(-c4ccccc4)ns3)c(C)c2cc1Cl | 5% | -29%
CCOC(=O)c1c(NC(=O)c2cc(-c3ccc(Cl)cc3)on2)sc2c1CCCC2 | -3% | -8%
COc1ccccc1NC(=O)Cc1c(C(=O)O)[nH]c2ccc(Cl)cc12 | 0% | -31%
COc1cccc(-c2nc(SCC(=O)N3CCc4ccccc43)c3c(=O)n(C)c(=O)n(C)c3n2)c1 | -1% | -30%
Cc1ccc2c(CNCCc3ccco3)c(C(=O)O)n(Cc3ccc(F)cc3)c2c1 | -19% | ?
COc1ccc(CCNC(=O)c2ccc3c(c2)c(C)c(C)n3Cc2ccccc2)c(OC)c1OC | -20% | ?
NCC(=O)CCC(=O)O | 13% | .
Cc1cccc(NC(=O)c2ccc3snnc3c2)c1C | -1% | -15%
CCOC(=O)Cc1ccc(NC(=O)N2CC(C)Oc3ccc(Cl)cc32)cc1 (centres undefined) | -17% | ?
COC(=O)c1cc2oc(C)cc2n1CC(=O)Nc1ccc(C)cc1C | -6% | 23%
COC(=O)c1ccccc1NC(=O)c1ccc(=O)n(Cc2cccc(C)c2)c1 | -21% | ?
COc1ccc(CNc2nc(-c3ccco3)nn2S(=O)(=O)c2ccc3ccccc3c2)cc1OC | -23% | -35%
CCc1ccccc1NC(=O)CSc1nnc(-c2ccccc2)c(-c2ccccc2)n1 | -26% | -19%
CCC1CN(C(=O)N2CCC(C(=O)N3CCN(c4cccc(C)c4C)CC3)CC2)c2ccccc2O1 (centres undefined) | 20µM* | ?
COc1ccc(N2CCN(C(=O)c3c(C)nn(-c4ccc(F)cc4)c3-n3cccc3)CC2)cc1 | -22% | -15%
CCN(C(=O)Cn1c(=O)oc2cc(Cl)ccc21)c1cccc(C(F)(F)F)c1 | -16% | 11%
C[C@@H]1CC[C@@]2(OC1)OC1CC3C4CC=C5CC(O)CCC5(C)C4CCC3(C)C1[C@@H]2C (some centres undefined) | -7% | .
CC(C)CCNC(=O)c1ccc2c(c1)NC(=O)C(CS(=O)(=O)Cc1ccc(F)cc1)N2 (centres undefined) | -3% | ?
O=C(CSc1ncccc1C(=O)Oc1ccccc1Cl)Nc1ccccc1Cl | 7% | ?
O=C(CCS(=O)(=O)c1cccs1)Nc1ccc(C(=O)Nc2ccccc2F)cc1 | 23% | -39%
COc1ccc(-c2nc(CNS(=O)(=O)c3cccc(F)c3)cs2)cc1 | ? | -18%
COc1ccc(Cl)cc1NC(=O)CN1c2ccccc2S(=O)(=O)c2ccccc21 | -14% | -14%
Cc1ccc(C(=O)Nc2cccc(C(=O)OCc3cc(=O)n4nc(C5CC5)sc4n3)c2)cc1 | -10% | -9%
CCOc1ccc(-c2c(C)nn3c(C)c(C(=O)NCCc4ccc(C)cc4)cnc23)cc1OCC | ? | -18%
COc1ccc(CCNC(=O)Cn2c(=O)n(-c3cc(OC)c(OC)c(OC)c3)c(=O)c3ccccc32)cc1OC | -15% | -17%
CCc1ccccc1NC(=O)c1cnc2sc(N3CCCC3)nn2c1=O | -5% | 0%
COCCCNC(=O)Cn1c(=O)n(-c2cccc(C)c2)c(=O)c2c3c(sc21)CN(C(C)=O)CC3 | 1% | -3%
Cc1cccc(C)c1NC(=O)CCSc1nc(-c2ccc3c(c2)OCO3)cc(C(F)(F)F)n1 | -5% | -17%
COc1ccc(S(=O)(=O)NCC(c2ccc(N(C)C)cc2)N2CCc3ccccc32)cc1F (centres undefined) | -18% | -11%

Part of the list above, reformatted:
structure: C[C@@H]1CC[C@@]2(OC1)OC1CC3C4CC=C5CC(O)CCC5(C)C4CCC3(C)C1[C@@H]2C (some centres undefined)
  HTT promoter inh: -7%; PMP22 txn prim: .
structure: CC(C)CCNC(=O)c1ccc2c(c1)NC(=O)C(CS(=O)(=O)Cc1ccc(F)cc1)N2 (centres undefined)
  HTT promoter inh: -3%; PMP22 txn prim: ?
structure: O=C(CSc1ncccc1C(=O)Oc1ccccc1Cl)Nc1ccccc1Cl
  HTT promoter inh: 7%; PMP22 txn prim: ?

New compounds follow.
smiles	HTT promoter inh	PMP22 txn prim
CCCSc1ncc(Cl)c(C(=O)Nc2nc3ccc(OCC)cc3s2)n1	-1%	-1%
CCN(C(=O)Cn1cnc2onc(-c3ccc(F)cc3)c2c1=O)c1ccc(OC)cc1	?	-24%
COc1ccc(NC(=O)C(c2ccccc2)N2Cc3ccccc3C2=O)cc1 (centres undefined)	-25%	15%
COc1cc(NC(=O)C2CCCN(S(=O)(=O)c3cn(C)cn3)C2)cc(OC)c1 (centres undefined)	-14%	18%
COc1ccc(S(=O)(=O)Nc2ccc3c(c2)CCCN3S(=O)(=O)c2ccc(C)cc2)cc1F	?	?
CCn1c2c(c(=O)n3ncc(C(=O)Nc4ccc(F)cc4Cl)c13)CN(Cc1ccc(OC)cc1)CC2	-28%	?
Cn1nc(-c2ccccc2F)c2cc(C(=O)Nc3cc(F)ccc3F)sc21	-16%	?
CCOC(=O)COc1ccc(CC)cc1C(=O)c1ccn2nc(-c3ccc(F)cc3)cc2n1	-6%	?
CCOc1ccc(-c2nc(Cn3c(=O)cc(C)c4c(C)nn(-c5ccccc5)c43)c(C)o2)cc1	1%	3%
Cn1c(=O)c2nc(SCC(=O)Nc3ccc(Cl)c(Cl)c3)n(C)c2n(C)c1=O	?	-1%
CCCN(CCC)C(=O)c1cn(CC)c2ccc(S(=O)(=O)N3CCCCC3)cc2c1=O	2%	-9%
Fc1ccc(Nc2ncnc3c2nc2n3CCCC2)cc1	22%	-12%
COCCNC(=O)c1c(-c2ccccc2)c(-c2ccccc2)nn(C)c1=O	-5%	-5%
CCOc1ccc(S(=O)(=O)c2cn(Cc3ccc(OC)cc3)c3ccc(F)cc3c2=O)cc1	-20%	-6%
O=[N+]([O-])c1ccc(S(=O)(=O)NCc2nc3cccnc3n2Cc2ccccc2Cl)cc1	-19%	-14%
COc1ccccc1NC(=O)C1=C(C)Nc2nc3ccccc3n2C1c1cccc(Br)c1 (centres undefined)	-21%	?
O=C(NC1CC(=O)N(c2ccccc2)C1)c1ccc(Br)o1 (centres undefined)	-16%	58%

Entries of single compounds from above. Order of screens: HTT promoter inh	PMP22 txn prim
CCOc1ccc(-c2nc(Cn3c(=O)cc(C)c4c(C)nn(-c5ccccc5)c43)c(C)o2)cc1 in the list: 1%	3%
COc1cc(NC(=O)C2CCCN(S(=O)(=O)c3cn(C)cn3)C2)cc(OC)c1 (centres undefined) in the list: -14%	18%
CCOC(=O)COc1ccc(CC)cc1C(=O)c1ccn2nc(-c3ccc(F)cc3)cc2n1 in the list: -6%	?
